MT1-MMP act inh: inhibitors of human MT1-MMP activation. 360,000 compounds, 0.061% hits. AID 651647. P50281. GFP/RFP ratio change, % at 20 µM. HT1080 RFP-PRO-GFP cells, GFP/RFP ratio fluorescence, overnight; percent of plate control window, DMSO zero;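 active = GFP/RFP ratio change of at least 30% with cell ATP level not reduced by more than half and red fluorescence within 50% of control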; note: strong numbers were not always called active
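Material – HT1080 RFP-PRO-GFP cells · Control set – DMSO wells and RFP-L50D-GFP cells · Incubation – overnight cell settling, then overnight compound exposure, 37 °C, 5% CO2 · Compound dosing – single-point 20 µM compound, 1% DMSO · Read-out – GFP/RFP fluorescence ratio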
HIV Env fusion: inhibitors of HIV Env-mediated cell fusion. HeLa-JRFL Env/CEM21 cell fusion, luciferase. inhibition, % at 12.3 µM. 360,000 compounds, 1.1% hits. AID 651610;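 active = mean replicate inhibition score of at least 50 and every replicate individually at or above 50; inconclusive = only one of the two criteria met; inactive = mean below 50 and not all replicates reaching 50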;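 note: 0% = plate neutral controls and 100% = maraviroc near 300 nM; one replicate is shown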
MT1-MMP act inh RFP: further read-out of MT1-MMP act inh, marked with its call; RFP signal change, %; measured here: RFP expression control read;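 0 = vehicle wells; hits needed this value within 50% of zero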
The depositor's hits bear a star; i = inactive; ? = inconclusive.

Values run as follows: MT1-MMP act inh	MT1-MMP act inh RFP	HIV Env fusion
- O=[N+]([O-])c1ccc(Cc2ccc([N+](=O)[O-])cc2)cc1
    3	3	-10
- c1ccc2c(CCc3ccncc3)cccc2c1
    -1	-4	-227
- Cc1c(CCNC=O)cc(C)c2c3c(oc12)CCCC3
    3	-1	-49
- O=c1[nH]c2cc([N+](=O)[O-])ccc2c2ccccc12
    -2	1	-16
- COc1cccc(CCOC(=O)c2c(-c3ccsc3)oc3c2C(OC(C)=O)CCC3)c1 (stereo unspecified)
    4	-2	4
- CC(C)(C)NC(=O)C(c1ccccc1)n1c(=O)c(-c2ccco2)nc2ccccc21 (stereo unspecified)
    -11	10	34
- O=C(Nc1cccc(Cl)c1)C1CCCN(C2=NS(=O)(=O)c3ccccc32)C1 (stereo unspecified)
    -7	0	-231
- COc1ccc(-c2oc3c(c2C#CC(C)(C)O)C(OC)CCC3)cc1 (stereo unspecified)
    3	0	-5
- COc1ccc(C2=Nc3ccccc3N(C(=O)c3ccc(C)cc3)C2C(=O)NCc2ccccc2)cc1 (stereo unspecified)
    -20	-13	-33
- CCCCN1C(=O)C(CC(=O)NCc2cccs2)CC(C(=O)N2CCCCCC2)=C1C (stereo unspecified)
    7	2	17
- COC(=O)C[C@H]1C=C[C@H](NC(=O)Nc2ccccc2F)[C@@H](CO)O1
    2	6	?
- O=C1OCC2=C1C(c1ccc3c(c1)OCO3)c1cc3c(cc1O2)OCO3 (stereo unspecified)
    9	-9	34
- O=C1CCCCCC[C@@H](O)[C@H](O)C[C@H](c2ccccc2)O1
    6	5	2
- CCCCCNC(=O)C1C(=O)Nc2ccccc2C(=O)N1C(C)(C)C (stereo unspecified)
    1	5	1
- CC1(C(=O)NS(=O)(=O)c2ccc(Cl)cc2)CCN1C(=O)c1ccc(C2CCCCC2)cc1 (stereo unspecified)
    2	1	3
- O=C(NCc1ccccc1)C(c1cc2ccccc2o1)n1c(=O)c(-c2ccco2)nc2ccccc21 (stereo unspecified)
    -8	-1	-48
- O=C(NC1CCCCC1)C(c1ccc(-c2ccccc2)cc1)n1c(=O)c(-c2ccco2)nc2ccccc21 (stereo unspecified)
    -6	3	-7
- O=C(C[C@H]1CC[C@H](NC(=O)Nc2ccccc2F)[C@@H](CO)O1)NCc1ccc(-c2ccccc2)cc1
    0	-9	1
- CCOC(=O)[C@]12CCCC=C1N(Cc1ccco1)C(=O)[C@H](CC(=O)NCCCN1CCCC1=O)C2
    4	-3	-28
- Cc1cccc(C)c1-n1nnnc1-c1nc2cc3ccccc3cc2[nH]c1=O
    0	-4	-180
- COc1ccc2ccc3ccc(OC)c(OC(C)=O)c3c2c1
    -1	0	-45
- C[C@H]1CN(CCc2ccccc2)C(=O)[C@@H]1CC(=O)Nc1ccccc1
    0	-2	-6
- Nc1ccn([C@@H]2O[C@H](C(=O)N3CCN(Cc4ccccn4)CC3)[C@@H](O)[C@H]2O)c(=O)n1
    1	4	1
- CSc1ncccc1C(=O)N1CCCC(N2CCN(c3ccccc3C)CC2)C1 (stereo unspecified)
    4	-7	16
- COc1ccc(CNC(=O)C[C@@H]2C=C[C@@H](NS(=O)(=O)c3cccc(OC)c3)[C@@H](CO)O2)cc1
    3	4	1
- COC(=O)[C@@]12C[C@@H](CC(=O)N3CCN(C(=O)c4ccco4)CC3)C(=O)N(Cc3ccc4c(c3)OCO4)C1=CCC(C)(C)C2
    4	-1	16
- CCCCN1C[C@H](c2ccc(Br)cc2)[C@@H](CC(=O)Nc2ccc(Br)cc2)C1=O
    -2	-2	-125
- [O-][N+](=Cc1ccccc1)c1ccc(Cl)cc1
    -2	1	-45
- Cc1cc(C)cc(Cn2cc(CN3CC(N4CCCCC4)CS3(=O)=O)nn2)c1 (stereo unspecified)
    2	6	13
- CCCNC(=O)c1cc2c(c(-c3cccc(-c4ccccc4F)c3)n1)[C@@H](CCO)N(C(=O)CC1CC1)C2
    -2	-9	-12
- CCOc1ccc(CCN2C(=O)C(=O)N([C@@H](CC(C)C)CN3CCC[C@H]3CN3C(=O)C(=O)NC[C@@H]3CC(C)C)C[C@@H]2CC(C)C)cc1
    3	2	-5
- COC(=O)[C@@]12C[C@@H](CC(=O)N3CCCCC3)C(=O)N(CCc3ccc(OC)c(OC)c3)C1=CCC(C)(C)C2
    3	3	-2
- FC(F)(F)c1cccc(-c2nc3ccccc3n2C(c2ccccc2)c2nc3ccccc3[nH]2)c1 (stereo unspecified)
    0	-20	-89
- COCCN1C(=O)CCC1(C)c1nnnn1-c1c(C)cccc1C (stereo unspecified)
    0	2	16
- CCC(c1nnnn1-c1ccc2c(c1)OCCO2)N1CCN(c2ccc(OC)cc2)CC1 (stereo unspecified)
    12	-11	24
- O=C(Nc1cccc2nsnc12)c1cc2c(cc1Cl)Sc1nccn1S2(=O)=O
    0	6	-26
- O=c1[nH]nc(-c2ccc[nH]2)[nH]1
    -3	8	-6
- O=c1c(-c2ccco2)nc2ccccc2n1C(c1ccccn1)c1nc2ccccc2[nH]1 (stereo unspecified)
    2	6	6
- CN(CCc1ccccc1)C(c1ccnc2ccccc12)c1nnnn1-c1ccc2c(c1)OCCO2 (stereo unspecified)
    -1	-9	60*
- CCCOc1ccc(/C(O)=C2/C(=O)C(=O)N(CCN3CCOCC3)C2c2ccccc2)cc1 (stereo unspecified)
    1	4	-10
- O=C(NCCN1CCC(n2c(=O)[nH]c3ccccc32)CC1)c1cccc(Cl)c1
    6	1	-8
- OC(c1ccccc1)(c1ccccc1)C1CCN(CCCOc2ccccc2)CC1
    1	-2	-58
- NC(=O)C1CCCN1Cc1ccc2c(c1)OCO2 (stereo unspecified)
    2	1	-1
- O=C(NC1CCCCC1)C1c2ccccc2OCC(=O)N1Cc1ccccc1 (stereo unspecified)
    0	5	-63
- COc1ccccc1NC(=S)NN=C(C)c1ccccn1
    15	-2	36
- CC(=O)N1c2ccccc2N=C(c2ccc(C(F)(F)F)cc2)C1C(=O)NC(C)C (stereo unspecified)
    0	1	-5
- COc1ccc(-c2ccccc2)cc1NC(=O)C1(C)CCN1C(=O)C(C)C (stereo unspecified)
    -3	-4	7
- CCCCN1C(=O)C(CC(=O)NCC2CCCCC2)CC(C(=O)N2CCCCCC2)=C1C (stereo unspecified)
    9	0	-13
- CC(C)C[C@H]1CN(CCCC[C@H]2CNC(=O)C(=O)N2CCc2ccccc2)C(=O)C(=O)N1CCc1ccccc1
    0	1	-431
- CCOC(=O)C1CCC(=O)N1Cc1c[nH]c2ccccc12 (stereo unspecified)
    2	4	18

(cont.)
canonical_smiles | MT1-MMP act inh | MT1-MMP act inh RFP | HIV Env fusion
COc1ccc(C2=NNC(=O)C2(C)Br)cc1 (stereo unspecified) | 6 | 2 | 7
CCOC(=O)[C@]12CCCC=C1N(Cc1ccccc1)C(=O)[C@H](CC(=O)N1CCC(c3ccccc3)CC1)C2 | 4 | -5 | -9
CN1C/C(=C/c2ccccc2[N+](=O)[O-])C(=O)/C(=C\c2ccccc2[N+](=O)[O-])C1 | 9 | 1 | -199
Clc1cccc(Cc2c(-c3cccc(Cl)c3)nc3c4ccccc4ccn23)c1 | -2 | 1 | 10
O=C1c2ccccc2C(=O)N1C1C(=O)N2CCSC12C(=O)OCc1ccccc1 (stereo unspecified) | -4 | 0 | -13
c1ccc2c(c1)C1=NCCN1c1ccccc1-2 | 15 | 9 | i
O=C(c1ccc(Cl)cc1)c1cccc(O)c1 | 2 | -1 | 4
O=C1CCC(C(=O)N2CCN(c3ccccc3)CC2)CN1Cc1ccc(Cl)cc1 (stereo unspecified) | 4 | -1 | 12
O=C(NC1CCCC1)C(c1ccc(F)cc1)N1CCC(O)(c2ccc(Cl)cc2)CC1 (stereo unspecified) | 3 | 2 | -39
Cc1cccc(C)c1N1C(=O)c2ccccc2NC(=O)C1C(=O)Nc1ccc(N2CCOCC2)cc1 (stereo unspecified) | -1 | 4 | 5
O=C1NC[C@H](CCCCN2C[C@H](Cc3ccccc3)N(CCC3CCCCC3)C(=O)C2=O)N(CCc2ccccc2)C1=O | -2 | -7 | -306
COc1cc(C(=O)C(=O)N2CCN(c3ccccc3)CC2)cc2ccccc12 | 3 | -4 | 12
CC(C)[C@@H](C(=O)OCC(=O)c1ccc2c(c1)NC(=O)CO2)N1C(=O)c2ccccc2C1=O | 3 | -1 | -21
Cc1cccc(COC[C@H](Cc2ccccc2)N2CCN(C(=O)c3cc(Cl)cc(Cl)c3)CCC2=O)c1 | -6 | -11 | 92*
CCCc1nc2cc(C)c(Br)c(C)n2c1Cc1ccc(OC)cc1C | 4 | -4 | 17
COc1ccc(-c2cc(CNc3nc(NC(C)C)nc4cc(-c5ccccc5)sc34)on2)cc1 | -32 | -21 | -34
CCC1=C(CC2NCCc3ccccc32)CC2c3cc(OC)c(OC)cc3CCN2C1 (stereo unspecified) | -33 | -18 | -410
O=C(NCCSSCCNC(=O)c1ccccc1)c1ccccc1 | -2 | 1 | 2
CCCCOCCCNC(=O)C[C@@H]1C[C@@]2(C(=O)OCC)CCC=C2N(Cc2ccc3c(c2)OCO3)C1=O | 3 | -2 | -30
Cc1csc(-c2nc3ccccc3n2C(C(=O)NC(C)(C)C)c2cc3ccccc3o2)c1 (stereo unspecified) | -19 | -9 | -27

Rewritten as labelled records: two of the compounds above
Cc1csc(-c2nc3ccccc3n2C(C(=O)NC(C)(C)C)c2cc3ccccc3o2)c1 (stereo unspecified)
  MT1-MMP act inh: -19	MT1-MMP act inh RFP: -9	HIV Env fusion: -27

Clc1cccc(Cc2c(-c3cccc(Cl)c3)nc3c4ccccc4ccn23)c1
  MT1-MMP act inh: -2	MT1-MMP act inh RFP: 1	HIV Env fusion: 10

Full records, looked up by structure.
Record of CC(C)[C@@H](C(=O)OCC(=O)c1ccc2c(c1)NC(=O)CO2)N1C(=O)c2ccccc2C1=O : MT1-MMP act inh = 3; MT1-MMP act inh RFP = -1; HIV Env fusion = -21
Record of Cc1cccc(COC[C@H](Cc2ccccc2)N2CCN(C(=O)c3cc(Cl)cc(Cl)c3)CCC2=O)c1 : MT1-MMP act inh = -6; MT1-MMP act inh RFP = -11; HIV Env fusion = 92*

Continuation:
canonical_smiles | MT1-MMP act inh | MT1-MMP act inh RFP | HIV Env fusion
COc1ccc(C2=Nc3ccccc3N(C(=O)c3ccc(C(F)(F)F)cc3)C2C(=O)Nc2c(C)cccc2C)cc1 (stereo unspecified) | -10 | -12 | -6
COc1cccc(Cn2c(C(C)n3c(-c4cnccn4)nc4ccccc43)nc3ccccc32)c1 (stereo unspecified) | -4 | -6 | -30
CCCCNC(=O)C1C(c2ccc(OC)cc2)=Nc2ccccc2N1C(=O)c1ccc2ncccc2c1 (stereo unspecified) | 1 | 5 | -12
COC1=CC(=O)c2nc(Cl)ccc2C1=O | -39 | -33 | 24
CC(C)c1cc(Cn2c3ccccc3c(=O)n2C(C)Cn2cc(CCCC#N)nn2)on1 (stereo unspecified) | 4 | 3 | 10
O=C(NCc1ccccc1)C1C(c2ccc3c(c2)OCO3)=Nc2ccccc2N1C(=O)c1cccc2ccccc12 (stereo unspecified) | -1 | -3 | 16
O=C1NC[C@@H](CCCCN2CCN(CCc3ccc(O)cc3)C(=O)C2=O)N(CC2CCCCC2)C1=O | 4 | 5 | 14
COc1cc(/C=C(/C#N)C(=O)Nc2cc(C(F)(F)F)ccc2Cl)ccc1OCC(=O)Nc1cccc(C(F)(F)F)c1 | 1 | 0 | 14
Cc1nccn1-c1ccc(NC(=O)[C@H]2O[C@@H](n3ccc(N)nc3=O)[C@H](O)[C@@H]2O)cc1 | 2 | 5 | 1
Cc1cc(C(=O)N2CCC(C)(C(=O)NS(=O)(=O)C3CC3)C2)n(C(C)(C)C)n1 (stereo unspecified) | 2 | 5 | -34
O=c1[nH][nH]c2c1[C@H](CCc1cccc(Cl)c1)O[C@H](CCc1ccccc1)C2 | 5 | 5 | -5
COC(=O)[C@@]1(Sc2ccc(C)cc2)CC(=O)N(c2cccc(SC)c2)[C@@H]1c1ccccc1 | -19 | -11 | 25
COC(=O)CCC(C(=O)CN1C(=O)c2ccccc2C1=O)N1C(=O)c2ccccc2C1=O (stereo unspecified) | 2 | 4 | 11
O=C1CC2CC1C(C(=O)O)C2C(=O)O (stereo unspecified) | 0 | 1 | -19
COc1ccc(OC)c(S(=O)(=O)Nc2ccccc2C(=O)N2CCCCC2)c1 | 4 | 4 | -2
COc1ccc(CCc2ccnc3ccccc23)cc1 | -8 | -21 | 7

Only part of the results is shown (hit frequency here may not be typical).
